VACV mCherry inh: vaccinia inhibition (mCherry reporter). Vaccinia virus mCherry reporter infection, fluorescence; about a quarter of the inactives have no number. Potency, µM (highest dose often 36.5 µM), inactives show top-dose activity change, negative = inhibition, most hits filed as inhibitors. 310,000 compounds, 0.63% hits; active = well fitted inhibition curve with a large enough effect; inconclusive = small, poorly fitted or top-dose-only effect; inactive = no such curve, though single readings can be large or run the other way; tested in A549 cells; further: nearly all actives have a fitted effect of over 35% in size; inactives centre near -10
VACV Venus inh: vaccinia inhibition (Venus reporter); Vaccinia virus Venus reporter expression, fluorescence; Potency, µM (series often up to 36.5 µM), inactives show top-dose activity change, negative = inhibition, usual class: inhibitors; 330,000 compounds, 0.46% hits; AID 720580; active means well fitted inhibition curve with a large enough effect; inconclusive means small, poorly fitted or top-dose-only effect; inactive means no such curve, though single readings can be large or run the other way; tested in A549 cells; further: nearly all actives have a fitted effect of over 30% in size; inactives centre near -10
Starred values were filed as active, the others as inactive; i = inactive; u = inconclusive; x = no result given; & = joins results of further samples; [ ] = dose if it differs, or a comment. On the % scale 0 is the no-effect control and ±100 the full control effect; potency means the concentration at half of the fitted maximal effect.

Under each structure – VACV mCherry inh	VACV Venus inh
- CN(CCC#N)C(=O)COC(=O)/C=C/c1cccs1
 : -6.1%	-11.6%
- CCn1ncc(/C=C/C(=O)NCc2cn(C)nc2C)c1C
 : -9.9%	-13.9%
- Cc1ccc(S(=O)(=O)N2CCOC2CNC(=O)C(=O)NCc2ccc3c(c2)OCO3)cc1 (stereo not given)
 : -1.5%	-10.9%
- CCOCC(=O)N1CCC(Cc2ccccc2)CC1
 : -17.1%	-5.0%
- O=[N+]([O-])c1cccc(-c2ccc(CN3CCCCC3)o2)c1
 : -17.1%	-12.2%
- O=S(=O)(NCCc1csc(-c2cccnc2)n1)c1cc(F)ccc1F
 : -16.8%	-16.4%
- Cc1cccc(OCC(=O)NCCc2nc3ccccc3[nH]2)c1C
 : -10.6%	-9.6%
- CCCCC[C@H]1CN(Cc2ccccc2)C(=O)[C@@H]1CC(=O)NCc1ccc(OC)cc1
 : u	-20.6%&-10.3%
- COc1ccc(S(=O)(=O)N2CCCN(C)CC2)cc1
 : -1.7%	-24.9%
- O=C(Nc1ccc(F)c(Cl)c1)Nc1nnc([C@@H]2O[C@H](CO)[C@@H](O)[C@H]2O)s1
 : 55.4%[activator]	-7.9%
- CSc1ccccc1OCc1cc(C(=O)N(C)Cc2ccc3nsnc3c2)no1
 : -27.0%	-14.8%
- Cc1sc2ncnc(OCC(=O)N3CCN(S(=O)(=O)c4ccccc4)CC3)c2c1C
 : i	-5.7%
- CCOC(=O)c1cc(-c2ccccc2C)nn1Cc1cc(C)no1
 : i	-17.3%
- CC(c1nnc(Sc2nnnn2-c2ccccc2)n1-c1ccc(F)cc1)N(C)C (stereo not given)
 : 12.6µM*	u
- Cc1ccc(S(=O)(=O)c2nc(S(C)(=O)=O)sc2N2CC(C)OC(C)C2)cc1 (stereo not given)
 : i	-12.2%
- CN(C)S(=O)(=O)c1ccc(-c2csc(-c3cccnc3)n2)cc1
 : -23.3%	-14.6%
- CCCCc1nn2c(=O)cc(COC(=O)c3ccc(NC(=O)c4ccccc4C)cc3)nc2s1
 : -10.5%	-27.4%
- O=C(CC1CS(=O)(=O)CC1CC(=O)Oc1ccccc1F)Oc1ccccc1F (stereo not given)
 : -10.8%	-5.2%
- COC(=O)C1=C(c2ccc(OCc3ccccc3)cc2)C[C@@H]2CC[C@H]1N2C(=O)NCCCc1ccccc1
 : -16.8%	u
- Cc1cc(F)ccc1C(O)c1ncc(-c2ccccc2)[nH]1 (stereo not given)
 : 10.1%	4.1%
- COC(=O)c1cc2c([nH]c1=O)CCCC2=O
 : i	3.7%
- COC(=O)c1cccc(C23CC4(C2)[C@H](CN(Cc2cccnc2)[C@@H]4c2ccccc2)C3c2ccc(Cl)nc2)c1 (stereo not given in full)
 : u	-19.8%
- Cc1ccc2cccc(NC(=O)C(C)(C)Oc3ccc(Br)cc3)c2n1
 : -0.1%	1.7%
- Cc1ccccc1CC(=O)N1CCCc2ccccc21
 : -5.4%	-2.8%
- COc1cc(OC)cc(C(=O)Nc2ccc(NC(=O)c3ccco3)c(C)c2)c1
 : -23.0%	-9.8%
- CCCCC(=O)Nc1ccc(C(=O)NNC(=O)c2cccs2)cc1
 : -14.7%	-0.9%
- O=C(CN(C(=O)CNC(=O)c1ccco1)c1cccc(F)c1)NC1CCCCC1
 : i	0.0%
- COCCCn1c(N)c(C(=O)NCc2ccco2)c2nc3ccccc3nc21
 : i	-14.8%
- CN(C)c1nc(C(=O)NN)nc(N(C)C)n1
 : -12.0%	-14.8%
- COC(=O)C1=C(c2ccc(F)cc2OCc2ccccc2)C[C@@H]2CC[C@H]1N2C(=O)NCc1ccccc1
 : i	-27.9%

Next section.
Under each structure – VACV mCherry inh	VACV Venus inh
- COc1cccc2cc(S(=O)(=O)c3ccc(C)cc3)/c(=N/NS(=O)(=O)c3ccc(C)cc3)oc12
 : -10.5%	-11.3%
- CCN1C[C@@H]2[C@@H]3C(=O)N(C)C(=O)[C@@H]3[C@](C)(C1=O)N2C(=O)c1ccc(Br)cc1
 : i	-3.2%
- COc1ccc(-c2nn(-c3ccccc3)cc2C(=O)OCC(=O)c2ccc(C)c([N+](=O)[O-])c2)cc1
 : -23.1%	-29.1%
- CCOC(=O)C1CCN(C(=O)c2nn(-c3ccc(C)cc3)c(=O)n(C)c2=O)CC1
 : -6.1%	-12.0%
- CCc1cccc(-n2nnc(-c3nc(-c4cccs4)no3)c2N)c1
 : -10.0%[7.34 µM]	-4.0%[7.34 µM]
- CCOC(=O)c1ccc(NC(=O)N2CC3CC(C2)c2cccc(=O)n2C3)cc1 (stereo not given)
 : -1.5%	-15.1%
- CC1CCCN(C(=O)C(=O)Nc2ccc3nc4n(c(=O)c3c2)CCCCC4)C1 (stereo not given)
 : -10.1%	-11.7%
- COCCN(C(=O)COC(=O)c1ccc2[nH]c(C)c(C)c2c1)c1c(N)n(Cc2ccccc2)c(=O)[nH]c1=O
 : i	-2.8%
- C/C(=N\Nc1cc(N2CCOCC2)nc(C)n1)c1ccc(F)cc1
 : i	-12.9%
- C/C=C/c1cnc2c(c1)C(=O)N([C@H](C)CO)C[C@@H](C)[C@@H](CN(C)C(=O)NC1CCCC1)O2
 : i	-17.3%
- O=S(=O)(c1ccc(Cl)c(S(=O)(=O)N2CCCC2)c1)N1CCCC1
 : 0.3%	-5.6%
- CCOC(=O)N1CCC(NC(=O)c2ccc3c(c2)N=C(CC)c2cc(C)ccc2S3)CC1
 : -25.7%	-25.7%
- CCCCNC(=O)C1CC(c2cccc(F)c2)=NO1 (stereo not given)
 : i	3.1%
- CCOc1ccccc1NC(=O)CSc1nc2ccccc2c(=O)n1CC1CCCO1 (stereo not given)
 : -7.0%	0.9%
- COCOCCn1cc(CN2CCS(=O)(=O)N(Cc3ccc(-c4ccccc4)cc3)C(C(C)C)C2=O)nn1 (stereo not given)
 : u	-27.2%
- NS(=O)(=O)c1cccc(NC(=O)COC(=O)Cn2cnc3ccccc32)c1
 : -8.2%[7.34 µM]	-4.8%[7.34 µM]
- CCC/C(C(=O)NCCO)=C1/c2ccccc2C(=O)N1c1ccccc1
 : i	-0.8%
- COCCN(C(=O)c1ccco1)c1nc(-c2ccc(OC)cc2)cs1
 : i	-23.8%
- C[C@@H](CO)NC(=O)c1ccc2c3n(nc2c1)-c1ccccc1CO3
 : i	-17.8%
- O=C(COc1ccccc1C(=O)O)Nc1ccc(SC(F)F)cc1
 : -4.0%	-8.9%
- CC1CN(CCCCOc2ccc(Cl)c3ccccc23)CC(C)O1 (stereo not given)
 : u	-20.8%
- Cc1ccc(NC(=O)CN(C)CC(=O)NC2CCCc3ccccc32)cc1 (stereo not given)
 : i	-27.4%
- CCCCN(C(=O)CN1C(=O)C2CCCCC2C1=O)c1c(N)n(Cc2ccccc2)c(=O)[nH]c1=O (stereo not given)
 : i	-9.0%
- CN(Cc1ccccc1)C(=O)c1ccc2c(c1)N(Cc1ccc(Cl)cc1)C(=O)c1ccccc1S2=O (stereo not given)
 : u	-22.3%
- O=C(CN1CCN(C/C=C/c2ccccc2)CC1)Nc1ccc(F)cc1F
 : i	-10.1%
- COc1ccc(/C=C(\C#N)C(=O)OCCNC(=O)c2ccncc2)cc1
 : i	-16.8%
- Cc1ccc(C(C)C)cc1S(=O)(=O)Nc1cccnc1
 : i	-1.4%
- CCN(CC)CCNC(=O)c1ccc(NC2=NC3CS(=O)(=O)CC3S2)cc1 (stereo not given)
 : i	-2.6%
- CC(C)(C)c1ccc(-c2nc(-c3ccncc3)no2)cc1
 : -24.6%	-11.5%
- Cc1ccc(S(=O)(=O)c2ccsc2NC(=O)c2ccccc2)cc1
 : -10.3%	-6.0%

5 neighbouring entries from above:
Under each structure – VACV mCherry inh	VACV Venus inh
- COc1ccc(/C=C(\C#N)C(=O)OCCNC(=O)c2ccncc2)cc1
 : i	-16.8%
- Cc1ccc(C(C)C)cc1S(=O)(=O)Nc1cccnc1
 : i	-1.4%
- CCN(CC)CCNC(=O)c1ccc(NC2=NC3CS(=O)(=O)CC3S2)cc1 (stereo not given)
 : i	-2.6%
- CC(C)(C)c1ccc(-c2nc(-c3ccncc3)no2)cc1
 : -24.6%	-11.5%
- Cc1ccc(S(=O)(=O)c2ccsc2NC(=O)c2ccccc2)cc1
 : -10.3%	-6.0%

(further entries)
Under each structure – VACV mCherry inh	VACV Venus inh
- Cc1nnc2ccc(-c3cccc(NC(=O)c4ccc(Br)o4)c3)nn12
 : u	-8.7%
- CCOC(=O)c1ccc(N=Cc2c(O)n(-c3ccccc3F)c(=S)[nH]c2=O)cc1
 : 0.0%	26.6%
- COc1ccc(C(=O)c2ccc(OC)c(OC)c2)cc1
 : i	-4.0%
- COc1cc(=O)n(C)c2ccccc12
 : -10.8%	-11.8%
- Cc1sc2c(c1C)C(=O)/C(=C\Nc1ccccn1)S(=O)(=O)N2C
 : i	-2.0%
- CCC(Cc1ccccc1)NC(=O)Cn1ncc2c3ccccc3n(Cc3ccccc3)c2c1=O (stereo not given)
 : u	-16.3%
- COC(=O)c1ccc2nc(C(F)(F)F)[nH]c2c1
 : -13.5%	-11.3%
- COCCNC(=O)CCN1N=C(c2ccccc2)CCC1=O
 : i	-12.8%
- O=C(NNC(=O)c1ccc(Cl)c(S(=O)(=O)Nc2ccc(Cl)cc2)c1)c1ccc(=O)[nH]c1
 : -18.8%	-7.5%
- COc1cc(NC(=O)COC(=O)CNC(=O)c2cc(C)cc(C)c2)c(C)cc1[N+](=O)[O-]
 : -23.8%	-5.0%
- COS(C)(=O)=O
 : i	0.0%
- COc1cc(OC)c(NC(=O)c2nc(-c3ccncc3)no2)cc1Cl
 : -13.3%	-5.0%
- Cn1cncc1C#Cc1c(C=O)n(C)c2ccccc12
 : -13.6%	-22.6%
- C/C=C/c1ccc(OCC(=O)OCC2=C(C(=O)OCC)C(C)NC(=O)N2)c(OC)c1 (stereo not given)
 : -2.1%	-1.2%
- COc1ccc(CN2CCC3CC2c2cc(-c4cccc(C)c4)ccc23)cc1 (stereo not given)
 : -5.9%	-19.9%
- COc1ccc(CC(=O)N2CCOCC2)cc1
 : x	-3.9%
- Cc1ccc(-n2nnnc2-c2ccccc2)cc1
 : -10.0%	-22.4%
- NC(=O)CC(NC(=O)Cc1ccc(Br)cc1)c1ccc(N2CCN(c3ccccc3)CC2)c([N+](=O)[O-])c1 (stereo not given)
 : u	u
- CC1CC(C)(C)NC(=S)O1 (stereo not given)
 : i	-11.4%&6.1%
- O=S(=O)(c1ccc(NC(=S)N2CCCCC2)cc1)N1CCCCC1
 : -8.3%	-13.6%
- OCCN1C[C@H](O)[C@@H](O)[C@H](O)[C@H]1CO
 : -14.4%	-12.6%
- O=C(NCCc1ccc(F)cc1)c1cccs1
 : x	-14.6%
- Nc1nc(-c2ccco2)c(-c2ccco2)s1
 : u	-10.6%
- O=C(CN(C(=O)Cn1nnc(-c2cccs2)n1)c1ccc2c(c1)OCCO2)NCC1CCCO1 (stereo not given)
 : -1.7%	u
- O=C1NC[C@@H](CCCCN2C[C@H](Cc3ccc(O)cc3)N(CCC3CCCCC3)C(=O)C2=O)N(CC2CCCCC2)C1=O
 : 9.9%	-1.4%
- Cc1ccsc1C(C(=O)NC(C)(C)C)N(C(=O)c1csnn1)c1ccccc1 (stereo not given)
 : -20.1%	-4.5%
- CCCCN1CC(c2nc3ccccc3n2CCCCOc2cc(C)ccc2C)CC1=O (stereo not given)
 : i	-16.7%
- O=C(O)c1cccc2c1-c1ccc(Cl)cc1C2=O
 : i	-5.6%
- O=c1[nH]n2c(=O)c3c([nH]c2c1N=Nc1ccccc1)CCC3
 : -11.3%	-9.1%
- O=C(O)c1ccc2nnn(O)c2c1
 : -14.6%	-5.5%

Remaining list, next part:
SMILES,VACV mCherry inh,VACV Venus inh
CC(C)(C)c1ccc(S(=O)(=O)C(C)(C)C)cc1,-1.5%,-0.2%
COC(=O)COc1ccc(NC(=O)Cn2nc(-c3ccccc3)c3ccccc3c2=O)cc1,11.6%,-10.3%
CCCNC(=O)C(C)n1nc(C)c2c(C)n(-c3ccccc3)nc2c1=O (stereo not given),-10.0%,-9.4%
O=C(NCc1cccnc1)C(=O)NCC(c1cccnc1)N1CCN(c2ccccc2)CC1 (stereo not given),-7.3%,-9.5%
C=CCNC(=S)Nc1cccc2ccccc12,-3.6%,-19.5%
Cc1ccc(C)c(N(CC(=O)NCc2ccc3c(c2)OCO3)C(=O)CCC(=O)Nc2ccccn2)c1,x,-1.7%
COCCN1C[C@@H](CO)O[C@@H](n2cnc3c(NC(C)C)ncnc32)C1,28.1%,-1.9%
CN(C)CCCn1c(=S)[nH]c2ccccc2c1=O,i,-10.9%

Continuation:
SMILES,VACV mCherry inh,VACV Venus inh
O=C(CN1CCN(CC(=O)Nc2ccccn2)CC1)Nc1ccccn1,x,10.5%
CCCCNC(=O)c1nc(-c2ccncc2)oc1-c1ccccc1,i,-5.6%
CC(=O)c1c(C)oc2c(Cl)cc(NS(=O)(=O)c3ccc(Cl)cc3)cc12,-16.8%,1.5%
CCN(CC)S(=O)(=O)c1cccc(S(=O)(=O)N2CCCCC2)c1,-4.0%,-26.7%
CSc1nc(Nc2ccc(Cl)cc2)c(C#N)c(=O)[nH]1,-15.0%,-9.0%
Cc1cc(C)cc(OCCn2c(C3CC(=O)N(c4ccccc4Cl)C3)nc3ccccc32)c1 (stereo not given),i,-23.3%
COc1ccccc1CNCc1ccc(C(=O)O)s1,-7.5%,-2.9%
COc1ccc(C)cc1NC(=O)c1cc2c(s1)-c1ccccc1SC2,-4.1%,-5.6%
CC(C)(C)c1ccc(C(=O)N2CCC2(C)C(=O)Nc2ccc3nc[nH]c3c2)cc1 (stereo not given),i,-23.1%
Cc1ccccc1NC(=O)C1Cc2ccccc2CN1C(=O)OCc1ccccc1 (stereo not given),-22.7%,-20.4%
